Six1-Eya2 inh = blocks human Six1 binding to Eya2; Q15475+O00167; AlphaScreen GST-Six1/His-Eya2 binding, biochemical; stronger effect = lower value; control for the full effect not named in the record; activity change, % (concentration not given with the values); 360,000 compounds, 0.56% hits; AID 651725; in the data active = activity change below about -65%; inconclusive = about -30% to -65%; inactive = above about -30%; note: % is set by controls: 0 for no effect and ±100 for the full control effect
Target sequence (O00167 whole entry, looked up): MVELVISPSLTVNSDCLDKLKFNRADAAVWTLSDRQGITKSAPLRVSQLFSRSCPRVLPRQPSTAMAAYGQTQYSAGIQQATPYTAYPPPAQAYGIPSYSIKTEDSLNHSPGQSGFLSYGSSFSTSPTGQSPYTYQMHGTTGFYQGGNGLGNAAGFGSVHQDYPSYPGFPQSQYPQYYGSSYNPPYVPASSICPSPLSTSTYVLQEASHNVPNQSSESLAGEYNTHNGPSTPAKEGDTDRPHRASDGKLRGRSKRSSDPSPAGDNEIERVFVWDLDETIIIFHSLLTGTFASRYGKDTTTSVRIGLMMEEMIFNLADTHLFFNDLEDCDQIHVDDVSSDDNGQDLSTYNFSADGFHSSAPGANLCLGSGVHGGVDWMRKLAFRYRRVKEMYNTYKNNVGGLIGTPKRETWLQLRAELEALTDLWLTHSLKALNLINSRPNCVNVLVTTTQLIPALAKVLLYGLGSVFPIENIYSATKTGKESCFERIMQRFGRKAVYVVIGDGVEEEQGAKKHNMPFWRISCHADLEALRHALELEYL
Target sequence (Q15475 whole entry, looked up): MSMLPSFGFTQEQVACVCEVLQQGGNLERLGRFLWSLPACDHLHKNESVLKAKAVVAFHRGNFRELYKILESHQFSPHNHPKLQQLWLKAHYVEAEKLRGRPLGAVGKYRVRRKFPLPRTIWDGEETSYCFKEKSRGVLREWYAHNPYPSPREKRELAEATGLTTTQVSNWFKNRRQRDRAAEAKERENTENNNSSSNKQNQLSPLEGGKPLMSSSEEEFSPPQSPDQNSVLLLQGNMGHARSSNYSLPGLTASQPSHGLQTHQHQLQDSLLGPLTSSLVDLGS
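AlphaScreen luminescence read after one hour at 37 °C in darkness. Pin-transferred compounds met GST-Six1 and His-Eya2 protein (5X stock 250 nM/500 nM) plus glutathione donor and Ni-chelate acceptor beads (5X, 50 ug/mL).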
Sfp PPTase inh = inhibitors of Bacillus subtilis Sfp phosphopantetheinyl transferase; Biochemical Sfp PPTase activity, qHTS; Potency, µM, without a hit: max response, negative = inhibition, actives largely listed as inhibitors; Q9F4F7; 310,000 compounds, 3.5% hits; active = well fitted inhibition curve with a large enough effect; inconclusive = small, poorly fitted or top-dose-only effect, or another doubt; inactive = no such curve, though single readings can be large or run the other way;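 note: the enzyme is Sfp with the accession as filed and its product quenches rhodamine fluorescence; potency is the fitted concentration of half-maximal effect; 0% = enzyme reaction without inhibitor and -100% = no enzyme wells; top concentration of the series not given in the record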
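Reaction rates are the 30-min fluorescence difference (ex 525, em 598 nm) in wells containing 15 nM Sfp, 5 uM rhodamine-CoA and 12.5 uM BHQ-2-YbbR at pH 7.6 with 10 mM MgCl2.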
PINK1 modulator = PINK1 expression modulation; PINK1 immunofluorescence, high-content cytometry, 24 h; Potency, µM (series often up to 76.6 µM), for the others: at the highest dose activation (PINK1 increase), hits mostly activators; 410,000 compounds, 0.2% hits; AID 624263; active = well fitted activation curve with a large enough effect; inconclusive = small, poorly fitted or top-dose-only effect; inactive = flat fitted curve, though single readings scatter; cell line not stated here;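 note: potency is the fitted concentration of half-maximal effect; % of control where 0% means no effect; nearly all actives have a fitted effect of over 65% in size; a mitochondrial uncoupler was the plate control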
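PINK1 protein level read as immunofluorescence by microplate cytometer in a fixed, stained stable cell line after 24 h exposure to five compound concentrations, with CCCP as control.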
D2 ag = activates the human D2 dopamine receptor. DiscoveRx PathHunter D2 beta-arrestin, luminescence, 90 min; 100% = 57 uM dopamine signal. 360,000 compounds, 0.084% hits. AID 624465. activation, % (no concentration beside the values); in the data active = activation above about 40%; inconclusive = about 15% to 40%; inactive = below about 15%; note: compound concentration not given in the record; the text of the record calls up to 30% inactive
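Agonist mode: compounds alone added to overnight-plated D2 PathHunter cells for 90 min at 37 C, with 57 uM final dopamine (EC100) defining full response. Beta-arrestin recruitment detected by chemiluminescent reagent, read after 1 h at ambient temperature.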
D2 PAM = potentiates the human D2 dopamine receptor allosterically. P14416. potentiation, % (no concentration beside the values). 360,000 compounds, 0.23% hits. DiscoveRx D2 beta-arrestin cells, luminescence, 90 min; 100% = 57 uM dopamine signal; active = potentiation of 50% or more; inconclusive = 30% to 50%; inactive = 30% or less;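 note: compound concentration not given in the record; tested on top of an EC20 dose of dopamine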
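D2 cells co-treated with compound plus 50 nM dopamine (EC20) for 90 min at 37 deg C to detect potentiation. Beta-arrestin recruitment was read as enzyme-fragment luminescence after 1 h at ambient temperature. Full response was set by 57 uM dopamine.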
TRPV1 PAM = enhances activation of the human vanilloid receptor TRPV1 | 320,000 compounds, 0.02% hits | potentiation, % at 8.33 µM | TRPV1-expressing cells, Fluo-8 calcium influx, capsaicin EC20 potentiation; host cell line not named in the record; control for the full effect not named in the record | Q8NER1; active means potentiation above 80%; inconclusive means 30% to 80%; inactive means below 30%; note: 0% is about no effect
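Cells expressing TRPV1 were dye-loaded with Fluo-8 and read kinetically: 10 s baseline, 3 min after compound (agonist portion), then 2 min after EC20 capsaicin (allosteric enhancer portion). Calcium-bound dye fluorescence at 480/520 nm.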
CtBP-E1A inh = blocks the CtBP interaction with E1A | AlphaScreen GST-E1A/His-CtBP binding, 1536-well; stronger effect = lower value; control for the full effect not named in the record | activity change, % (concentration not given with the values) | 340,000 compounds, 0.49% hits; in the data active means activity change below about -65%; inconclusive means about -30% to -65%; inactive means above about -30%; note: % is set by controls: 0 for no effect and ±100 for the full control effect
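Homogeneous bead-based format: GST-tagged E1A captured on glutathione donor beads, His-tagged CtBP on nickel acceptor beads; compounds precede bead addition by 2 h at 37 °C.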
The depositor's hits bear a star; ? = inconclusive; / = not tested or not shown; [ ] = another dose, or the depositor's remark.

(1) O=S(=O)(c1ccc(S(=O)(=O)n2cnc3ccccc32)cc1)N1CCCCCC1
(2) Cn1c2c(c(=O)n(C)c1=O)C(NC(=O)C(C)(C)C)(C(F)(F)F)C(=O)N2 (stereo not given)
(3) CCC(C)NC(=O)COC(=O)c1cccnc1Nc1ccccc1F (stereo not given)
(4) C(=N\c1nc2ccccc2n1CCN1CCOCC1)/c1cccs1
(5) COc1ccc(OCCNS(=O)(=O)c2ccc3oc4ccccc4c3c2)cc1
(6) COc1ccc(Cl)cc1NC(=O)c1noc2c1CCCC2
entry no.,1,2,3,4,5,6
Six1-Eya2 inh,6,0,6,4,4,15
Sfp PPTase inh,16%,1%,18%,21%,15%,21%
PINK1 modulator,-0.1%[38.3 µM],0.2%,3.6%,-1.5%,3.5%,2.9%
D2 ag,-2.0,-2.1,-3.3,-1.1,0.1,-5.6
D2 PAM,3,-2,-4,-4,-3,-4
TRPV1 PAM,-1,3,-9,3,11,-8
CtBP-E1A inh,3,3,14,3,0,-5

(7) CCCCn1c(N)c(N(CC(C)C)C(=O)CSCc2ccc(Cl)c(Cl)c2)c(=O)[nH]c1=O
(8) CSc1nsc(SC)c1-c1ccc(Cl)cc1
(9) CC1(C)CC(=O)C2=C(C1)NC(=O)NC2c1ccccc1 (stereo not given)
(10) CCN(CC)c1ccc(C=C2C(=O)OC3(CCCC3)OC2=O)cc1
(11) CCOC(=O)/C(=C/c1ccco1)NC(=O)c1ccc(Br)o1
(12) CCOC(=O)C1=C(C)NC(=O)NC1c1ccc2c(c1)OCO2 (stereo not given)
entry no.,7,8,9,10,11,12
Six1-Eya2 inh,1,3,5,1,8,0
Sfp PPTase inh,/,/,5%,0%,-27%,6%
PINK1 modulator,1.5%,5.7%,1.9%,2.9%,2.5%,-0.9%
D2 ag,-2.8,-4.4,2.9,-1.2,-1.0,-3.7
D2 PAM,-68,-6,-4,-4,-5,-14
TRPV1 PAM,5,/,-4,0,3,1
CtBP-E1A inh,-14,-7,/,-2,4,0

(13) O=C(COc1ccccc1[N+](=O)[O-])N/N=C/c1ccccn1
(14) CC(Oc1ccc(F)cc1)C(=O)Nc1nc(-c2ccccn2)cs1 (stereo not given)
(15) Cc1cc(C)cc(NC(=O)C2CC(=O)n3ncnc3N2)c1 (stereo not given)
(16) S=C(Nc1ccc(Oc2ccccc2)cc1)NC1CCCCCC1
(17) CC1CC(OC(=O)C2CCN(S(=O)(=O)c3ccc(F)cc3)CC2)C(=O)O1 (stereo not given)
(18) Nn1c(Cc2cccc3ccccc23)nnc1SCc1ccc(Cl)c(Cl)c1
entry no.,13,14,15,16,17,18
Six1-Eya2 inh,-3,-28,1,-15,-2,?
Sfp PPTase inh,50µM*,/,-2%,-7%,/,5%
PINK1 modulator,0.5%,6.6%,-0.2%,?,0.0%,?
D2 ag,-4.1,2.2,-2.9,-4.5,-5.0,-4.7
D2 PAM,-11,1,-11,-12,-3,-20
TRPV1 PAM,17,9,-2,-6,-21,-18
CtBP-E1A inh,/,-79*,/,-17,2,-25

(19) O=S1(=O)CC(N2CCCC2)CN1Cc1ccc(F)cc1 (stereo not given)
(20) O=C(Nc1cccc(C(F)(F)F)c1)C1Cc2c(-c3cccc(F)c3)ccnc2O1 (stereo not given)
(21) CNC(=O)Cn1ncc2c(C)n(Cc3ccc(C)cc3)c(C)c2c1=O
(22) COc1ccccc1N(C)S(=O)(=O)c1ccc(C(=O)OCC(=O)NCc2ccco2)cc1
(23) COc1cc2c(cc1OC)/C(=C/C(=O)c1ccc(NC(C)=O)cc1)NCC2
(24) O=c1c2ccccc2sc2nc(C3CCCCC3)n(Cc3ccco3)c(=O)c12
entry no.,19,20,21,22,23,24
Six1-Eya2 inh,-5,8,-6,-2,?,-4
Sfp PPTase inh,/,/,14%,-1%,5%,-2%
PINK1 modulator,0.2%,30%,-1.1%,-1.2%,2.2%,-4.4%[38.3 µM]
D2 ag,-5.1,2.6,-0.5,0.5,7.1,-2.5
D2 PAM,-8,-18,8,-10,1,-5
TRPV1 PAM,/,/,19,-5,-9,13
CtBP-E1A inh,6,0,-1,3,-17,2

(25) O=C(Nc1nccs1)c1ccc(N2C(=O)C3CCCCC3C2=O)cc1 (stereo not given)
(26) CC(C)(C)c1cc(CN(CCO)CCO)cc(C(C)(C)C)c1O
(27) CCc1ccc(Nc2ccc(C(=O)O)cc2[N+](=O)[O-])cc1
(28) CCOc1ccc(-c2cc(C(=O)Nc3cc(OC)c(OC)c(OC)c3)[nH]n2)c(C)c1
(29) O=C(c1cc2c(s1)CCCC2)N1CCN(C(=O)C2CCCO2)CC1 (stereo not given)
(30) COc1ccccc1CNc1nc(NCCNC(C)=O)c2sccc2n1
entry no.,25,26,27,28,29,30
Six1-Eya2 inh,-18,-1,-16,-4,3,-1
Sfp PPTase inh,-5%,-9%,15%,/,0%,/
PINK1 modulator,0.7%,-1.6%[38.3 µM],0.4%,0.0%,2.3%[38.3 µM],-0.3%
D2 ag,-2.6,0.3,-6.9,4.4,2.6,-2.7
D2 PAM,3,0,-13,-8,6,-8
TRPV1 PAM,-22,-8,12,/,-6,/
CtBP-E1A inh,3,7,-1,2,2,1

Shown with two lines to a compound: part of the list above.
Values in the order: Six1-Eya2 inh | Sfp PPTase inh | PINK1 modulator | D2 ag | D2 PAM | TRPV1 PAM | CtBP-E1A inh
#8 CSc1nsc(SC)c1-c1ccc(Cl)cc1
  3 | / | 5.7% | -4.4 | -6 | / | -7
#22 COc1ccccc1N(C)S(=O)(=O)c1ccc(C(=O)OCC(=O)NCc2ccco2)cc1
  -2 | -1% | -1.2% | 0.5 | -10 | -5 | 3

Printed as active in CtBP-E1A inh (from the list above):
nr	molecule	Six1-Eya2 inh	Sfp PPTase inh	PINK1 modulator	D2 ag	D2 PAM	CtBP-E1A inh
14	CC(Oc1ccc(F)cc1)C(=O)Nc1nc(-c2ccccn2)cs1 (stereo not given)	-28	/	6.6%	2.2	1	-79*

Continuation.
(31) O=c1c(-c2n[nH]c(=S)n2-c2ccccc2)cccn1Cc1cccc(Cl)c1
(32) COc1cccc(NS(=O)(=O)c2csc(C(N)=O)c2)c1
(33) CC[C@@H]1C=C(C(=O)O)[C@H](c2ccc(Br)cc2)N1S(=O)(=O)c1ccc(C)cc1
(34) COc1ccccc1CNC(=O)COC(=O)c1ccccn1
(35) Cc1cccc(NC(=O)c2ccc(COc3ccccc3[N+](=O)[O-])o2)n1
(36) CSc1ccc(CN2CCC2(C)C(=O)Nc2ccc(C)c(O)c2)cc1 (stereo not given)
entry no.,31,32,33,34,35,36
Six1-Eya2 inh,7,4,-1,-16,-11,-7
Sfp PPTase inh,13%,15%,/,/,-2%,/
PINK1 modulator,-0.9%,3.7%,0.4%,1.9%,5.2%,2.4%
D2 ag,-4.7,0.6,0.9,2.4,2.4,4.2
D2 PAM,-39,-2,/,2,0,-5
TRPV1 PAM,7,-4,/,-10,-5,/
CtBP-E1A inh,7,3,3,-19,/,-1

(37) O=S(=O)(NCCc1cn2ccccc2n1)c1ccc(-c2ccccc2)cc1
(38) O=C(CNC(=O)c1ccc(Br)cc1)NCCc1nc2ccccc2[nH]1
(39) COc1ccccc1N(C(=O)CN1C(=O)c2ccccc2S1(=O)=O)C(C(=O)NCC1CCCO1)c1ccc(F)cc1 (stereo not given)
(40) O=C1CC(c2cccs2)Cc2nc(NC(=O)C3CC3)ncc21 (stereo not given)
(41) COc1ccc(OC)c(Nc2cc(C)nc3ccccc23)c1
(42) COc1ccccc1NC(=O)c1ccc(NC(=O)CSc2nc(N)cc(=O)[nH]2)cc1
entry no.,37,38,39,40,41,42
Six1-Eya2 inh,-5,5,7,-1,-3,-4
Sfp PPTase inh,5%,2%,5%,7%,4%,/
PINK1 modulator,-1.0%,2.6%[38.3 µM],8.8%,-2.1%,12%[38.3 µM],4.2%
D2 ag,0.6,-1.3,-4.1,-5.1,-2.3,-1.4
D2 PAM,-5,-15,5,-5,-9,-1
TRPV1 PAM,1,13,2,/,-2,2
CtBP-E1A inh,-3,3,1,-10,-5,-3

Copied from the list:
Six1-Eya2 inh with #41 is entered as -3
D2 ag with #37 is entered as 0.6

The list goes on:
(43) Cc1ccc2nsnc2c1N
(44) C[N+]1(CC(=O)Nc2ccccc2Cl)CCN(C(=O)c2cccs2)CC1
(45) CCn1cc(CN2CCC(n3nccc3NC(=O)c3ccccc3C)CC2)cn1
(46) Cc1nn(-c2ccccc2)c(Cl)c1/C=N/Nc1nc2ccccc2[nH]1
(47) O=C(CCNS(=O)(=O)c1ccccc1)N1CCC(Cc2ccccc2)CC1
(48) CCOC(=O)N1CCN(Cc2nc3c(c(=O)[nH]c(=O)n3C)n2Cc2ccccc2C)CC1
entry no.,43,44,45,46,47,48
Six1-Eya2 inh,9,1,3,2,-1,-1
Sfp PPTase inh,-6%,0%,1%,0%,4%,23%
PINK1 modulator,1.4%,-0.6%,-0.9%,3.4%,-1.4%,5.9%[38.3 µM]
D2 ag,1.8,-0.5,-2.7,-2.6,5.1,-2.2
D2 PAM,-7,-15,-21,0,3,-7
TRPV1 PAM,-21,-4,9,-12,1,4
CtBP-E1A inh,5,4,6,0,4,2

(49) Cc1ccc(-n2ncc3c(N4CCC5(CC4)OCCO5)ncnc32)c(C)c1
(50) CNC(=O)c1nnsc1S(=O)(=O)c1ccc(Cl)cc1
(51) CC1CN(C(C)C(=O)NC(c2ccccc2)c2ccccc2)CC(C)O1 (stereo not given)
(52) Nc1c2c(nc3sc4c(c13)CCCCC4)CCCCC2
(53) COC(=O)c1ccc(COc2ccccc2/C=N/O)o1
(54) C/C=C/C=N/Nc1nc(-c2ccc([N+](=O)[O-])cc2)cs1
(55) O=C(NCc1nnc2c(C(F)(F)F)cc(Cl)cn12)c1ccc(Br)o1
entry no.,49,50,51,52,53,54,55
Six1-Eya2 inh,9,-11,6,4,2,-24,-3
Sfp PPTase inh,15%,7.1µM*,10%,17%,-6%,17%,9%
PINK1 modulator,6.5%,0.2%,4.2%,14%,-0.2%,4.0%,0.0%
D2 ag,3.0,-3.7,7.7,-4.0,-3.6,5.0,0.1
D2 PAM,-36,-32,-6,-11,-2,12,2
TRPV1 PAM,-2,0,-2,-17,2,-2,5
CtBP-E1A inh,-27,-8,8,-16,-4,-16,0
